Source: PubChem BioAssay (National Center for Advancing Translational Sciences (NCATS))
GLA inh pH 4.5: qHTS Assay for Inhibitors of Human alpha-Galactosidase at pH 4.5 | 230,000 tested, under 10 active | activity change, negative = inhibition, % at 105 µM | purified enzyme, 4-MU-alpha-Gal fluorescence, pH 4.5; inconclusive = small, poorly fitted or top-dose-only inhibition, or a rising curve; inactive = flat fitted curve, though single readings scatter; no compound was filed as active;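 note: 0% = full activity with enzyme and -100% = basal without enzyme; dose as in the result columns while the protocol names 77 µM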
Rango-impB inh: qHTS Assay for Inhibitors of Rango (Ran-regulated importin-beta cargo) - Importin beta complex formation; Importin subunit beta-1 (Homo sapiens), Q14974; Rango CFP/YFP FRET sensor + importin beta, 45 min; Potency, µM (titrated, usually from 92.2 µM), for inactives: top-dose inhibition of complex formation; 340,000 compounds, 0.031% hits; active = rising FRET ratio curve, often small or poorly fitted; inconclusive = mostly compound fluorescence or quenching in the first reads; inactive = flat curves in all reads;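 note: potency is the fitted concentration of half-maximal effect; 0% = DMSO wells and 100% = buffer wells lacking importin beta; nearly all actives have a fitted effect of over 15% in size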
Target sequence (Q14974 whole entry, looked up): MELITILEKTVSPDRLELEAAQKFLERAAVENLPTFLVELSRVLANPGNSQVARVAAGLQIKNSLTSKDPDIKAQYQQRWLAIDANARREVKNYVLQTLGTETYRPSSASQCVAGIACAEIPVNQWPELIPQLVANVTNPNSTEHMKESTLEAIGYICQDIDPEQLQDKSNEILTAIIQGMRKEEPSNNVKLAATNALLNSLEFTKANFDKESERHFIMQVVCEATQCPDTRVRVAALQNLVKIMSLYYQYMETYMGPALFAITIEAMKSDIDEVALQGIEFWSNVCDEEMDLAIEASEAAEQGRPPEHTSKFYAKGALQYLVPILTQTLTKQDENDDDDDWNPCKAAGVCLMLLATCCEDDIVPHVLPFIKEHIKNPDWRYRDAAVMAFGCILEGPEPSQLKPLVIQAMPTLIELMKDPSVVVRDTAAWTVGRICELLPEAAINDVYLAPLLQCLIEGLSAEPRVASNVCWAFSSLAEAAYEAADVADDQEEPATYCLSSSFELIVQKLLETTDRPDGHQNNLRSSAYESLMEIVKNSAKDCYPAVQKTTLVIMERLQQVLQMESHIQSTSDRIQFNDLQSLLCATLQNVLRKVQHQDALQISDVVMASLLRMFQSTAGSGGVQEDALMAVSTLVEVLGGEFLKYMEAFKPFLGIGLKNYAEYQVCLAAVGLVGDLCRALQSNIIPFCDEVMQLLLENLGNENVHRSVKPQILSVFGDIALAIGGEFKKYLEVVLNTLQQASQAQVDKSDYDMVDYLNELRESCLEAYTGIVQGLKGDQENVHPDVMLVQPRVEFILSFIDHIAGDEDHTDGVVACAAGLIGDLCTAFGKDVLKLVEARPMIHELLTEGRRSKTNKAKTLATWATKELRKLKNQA
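FRET biosensor (snurportin 1 IBB flanked by EYFP and cerulean), 50 nM, with compound 5 min, then 0.125 microM importin beta in PBS, 1 mM DTT, 0.02% Tween-20, 0.1% BSA. CFP/YFP ratio read after 45 min at room temperature; pre-read flags interference.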
Rango dissoc inh: qHTS Assay for Inhibitors of RanGTP induced Rango (Ran-regulated importin-beta cargo) - Importin beta complex dissociation. Snurportin-1 (Homo sapiens) + GTP-binding nuclear protein Ran (Homo sapiens) + Importin …. Biochemical FRET Rango-importin beta, RanGTP-induced dissociation. Potency, µM (titrated, usually from 46.1 µM), for the others: top-dose activity change, negative = inhibition. 340,000 compounds, 0.071% hits; active means falling FRET ratio curve, often poorly fitted, with flat reads before Ran was added; inconclusive means other falling curves, or compound fluorescence or quenching; inactive means flat or rising ratio curve;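 note: potency is the fitted concentration of half-maximal effect; % of control where 0% means no effect; nearly all actives have a fitted effect of over 45% in size; -100% = wells without RanGTP and RCC1; the record marks most hits as doubtful in a second field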
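Rango FRET biosensor (snurportin-1 IBB flanked by N-terminal EYFP and C-terminal CFP10) at 0.1 uM, with 0.25 uM importin beta in PBS, 1mM DTT, 0.02% Tween-20, 0.1% BSA. 0.6 uM Ran, 2mM GTP and 0.2 uM RCC1 were then added for 45 min at room temperature. Inhibition read as loss of FRET rise.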
miR-21 reporter: qHTS Assay for Modulators of miRNAs and/orActivators of miR-21. HeLa miR-21 FLuc reporter, luciferase, 48 h. Potency, µM (doses to about 38.3 µM), without a hit: at the top dose reporter change, positive = more light. 340,000 tested, under 10 active; active = well fitted rising curve with a large enough effect; inconclusive = small, poorly fitted or top-dose-only effect; inactive = no such curve, though single readings can be large or run the other way;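 note: % of control where 0% means no effect; miR-21 action dims this reporter so a rising signal means less miR-21 action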
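HeLa miR-21-FLuc reporter line, endogenous miR-21; 2000 cells/well in DMEM/10% FBS; compound titration up to ~40uM final, 48 h, 37 degree Celsius; luciferase detection reagent, 15 min lysis, CCD luminescence.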
Numbers without * were called inactive; u = inconclusive; x = no result given; & = joins results of further samples. Only part of the results is shown; rates above refer to the full screens.

SMILES	GLA inh pH 4.5	Rango-impB inh	Rango dissoc inh	miR-21 reporter
CCOC(=O)c1c(NC(=O)Cn2ccsc2=N)sc(C)c1C	1	-0.9%	-4%	-5%
CCOC(=O)N1CCN(C(=O)c2ccc(CN(c3ccc(C)c(C)c3)S(C)(=O)=O)cc2)CC1	-4	-1.5%	3%	16%
O=C(CN1CCCc2ccccc21)Nc1ccc(F)cc1[N+](=O)[O-]	15	0.5%	1%	-2%
Cc1cc(C)cc(NC(=S)N2CCN(c3ncccn3)CC2)c1	-6	3.4%	8%	-3%
O=C(Nc1nc2ccccc2[nH]1)C1CCN(C(=O)c2ccc(F)cc2)CC1	x	8.6%	-12%	x
O=C(OCCN1C(=O)c2ccccc2C1=O)c1cnccn1	11	u	0%	-13%
Cc1ccccc1NC(=O)CCS(=O)(=O)c1cccc2nonc12	x	-1.0%	0%	0%
CCn1nnnc1SCC(=O)Nc1ccc2c(c1)OCCO2	4	-0.9%	1%	-45%
O=C1C=C(c2ccc3c(c2)OCO3)CCC1	x	-0.7%	2%	x
COC(=O)c1ccc(NC(=O)CSc2ccc(-c3ccccn3)nn2)cc1	x	-0.9%	-4%	8%
Cc1sc2nc(SCC(=O)OC(C)C)n(C)c(=O)c2c1C	0	-0.1%	5%	2%
O=C1CCN(C(=O)c2cccs2)c2ccccc21	1	-0.2%	3%	1%
C[C@H](CO)N1C[C@H](C)[C@@H](CN(C)C(=O)Nc2ccc(C(F)(F)F)cc2)Oc2ccc(NC(=O)C3CC3)cc2C1=O	x	-0.7%	5%	x
O=C(c1ccc([N+](=O)[O-])s1)N1CCCc2ccccc21	x	-0.2%	3%	17%
COc1ccc(CC(=O)Nc2ccc(S(=O)(=O)Nc3ncccn3)cc2)cc1	-18	-3.9%	-10%	-2%
C/C(=N\NC(=O)c1cc(C2CC2)nc2ccccc12)c1ccc(C)s1	-8	4.1%	-2%	11%
Nc1ccc(C(=O)OCC(=O)NC2CC2)cc1[N+](=O)[O-]	1	4.1%	22%	-3%
CC(C)c1ccccc1NC(=S)NCCCn1ccnc1	8	4.6%	-8%	0%
CSc1nc2ccccc2n1CC(=O)N1CCCCC1	3	-0.9%	-3%	-4%
CC(=O)N(C)c1nnc(-c2cnccn2)s1	-5	0.4%	10%	-8%
Cc1cccc(-c2nnc(SCCC(=O)N3CCOCC3)o2)c1	-23	4.0%	1%	23%
COC(=O)CCCN1C(=O)NC(c2ccc(-c3ccccc3)cc2)C(C(=O)OCc2ccccc2)=C1C (stereo not drawn)	x	-5.5%	6%	x
CCOC(=O)c1sc2nc(C)n(N)c(=O)c2c1C	1	-4.8%	0%	-8%
O=C(COC(=O)Cn1cnc2ccccc2c1=O)NCC12CC3CC(CC(C3)C1)C2	-1	-1.5%	-13%	-16%
O=C(CSc1nc(=O)n2ccccc2n1)N1CCCc2ccccc21	x	-0.2%	0%	x
Cc1ccc(CC(=O)NNC(=O)c2ccncc2)cc1C	x	-5.0%	27%	x
CC(=O)N1CCc2cc(S(=O)(=O)NCCC(=O)NCCc3ccc(Cl)cc3)ccc21	x	0.3%	1%	18%
Cc1ccc(-c2nnc(Nc3ccc(OCC(N)=O)cc3)c3ccccc23)cc1S(N)(=O)=O	x	0.0%	-7%	1%
CC(C)NC(=O)CN1CCN(Cc2nc(C(c3ccccc3)c3ccccc3)no2)CC1	3	0.2%	-8%	4%
COc1cc(Cl)ccc1NC(=S)N(CCCN1CCOCC1)Cc1cn(C)c2ccccc12	-10	-1.1%	13%	-16%
O=C(Nc1ccc(O)c(C(=O)O)c1)Oc1ccccc1	-3	2.6%	24%	-2%
Cc1ccc(N=Cc2c(O)cc(C)oc2=O)c(C)c1	5	u	-13%	-1%
CC(=O)Nc1nonc1NC(=O)CSc1nc2ccccc2o1	-9	-4.4%	18%	-2%
COc1cc(Cl)c(S(=O)(=O)NCCN2CCOCC2)cc1Cl	-9	3.9%	5%	1%
CSc1ccccc1C(=O)Nc1cccc(C)c1	-6	7.4%	3%	-33%
CC(C)CN1CCC(CNC(=O)CCc2nnc(Cc3c[nH]c4ccccc34)o2)CC1	-1	2.3%	-1%	-7%
Cc1ccc(-c2csc3ncnc(SCC(=O)c4ccc5c(c4)OCCO5)c23)cc1	-9	-2.6%	12%	8%
Cc1ccc(NS(=O)(=O)c2cccc(C(=O)N3CCCC(C)C3)c2)cc1 (stereo not drawn)	x	0.4%	-12%	x
COc1cc2c(cc1OC)CN(C(=S)NC(=O)c1ccccc1)CC2	7	-1.0%	-5%	27%
CCCCN(CCCC)C1=Nc2ccccc2N/C1=C(/C#N)C(=O)OCC	4	3.1%	-22%	3%

Some of these compounds in order of the Rango-impB inh value, low to high.
structure,Rango-impB inh
COc1cc2c(cc1OC)CN(C(=S)NC(=O)c1ccccc1)CC2,-1.0%
CC(=O)N1CCc2cc(S(=O)(=O)NCCC(=O)NCCc3ccc(Cl)cc3)ccc21,0.3%
CCCCN(CCCC)C1=Nc2ccccc2N/C1=C(/C#N)C(=O)OCC,3.1%

A section taken from the entries so far, for reference:
SMILES	GLA inh pH 4.5	Rango-impB inh	Rango dissoc inh	miR-21 reporter
O=C(Nc1ccc(O)c(C(=O)O)c1)Oc1ccccc1	-3	2.6%	24%	-2%
Cc1ccc(N=Cc2c(O)cc(C)oc2=O)c(C)c1	5	u	-13%	-1%
CC(=O)Nc1nonc1NC(=O)CSc1nc2ccccc2o1	-9	-4.4%	18%	-2%
COc1cc(Cl)c(S(=O)(=O)NCCN2CCOCC2)cc1Cl	-9	3.9%	5%	1%

Next part
SMILES	GLA inh pH 4.5	Rango-impB inh	Rango dissoc inh	miR-21 reporter
Cn1c(Cc2ccccc2)nnc1SCC(=O)Nc1cccc(S(=O)(=O)NC2=NCCCCC2)c1	-9	-4.6%	7%	-2%
Nc1n[nH]c(CO)n1	0	3.1%	6%	-2%
CCN(CC(=O)NCc1cccs1)C(=O)c1cc(S(=O)(=O)N2CCCCC2)ccc1Cl	x	1.5%	-3%	x
COc1ccccc1CCNS(=O)(=O)c1c(C)n(C)c(=O)n(C)c1=O	14	-0.2%	8%	-7%
CC1=NN(C(C#N)c2ccccc2)C(C)(C)C1 (stereo not drawn)	-8	-1.5%	7%	3%
CC(C)(O)C#Cc1ccc(CN2CCN(C3CCCCC3)C(CCO)C2)cc1 (stereo not drawn)	1	-2.6%	4%	5%
CCn1nc(C)c(CN2CCC(C(=O)Nc3cccc(-c4cccc(F)c4)c3)CC2)c1C	x	-1.7%	21%	21%
C=CCNC(=S)NNC(=O)c1ccccc1	7	1.1%	3%	-5%
CCOC(=O)c1oc2cc(OCC(N)=O)ccc2c(=O)c1-c1ccc(OC)c(OC)c1	0&-18	0.0%	3%	-8%&-8%
O=C(NCCc1ccc(Cl)cc1)C1CCN(S(=O)(=O)N2CCC3(CC2)OCCO3)CC1	-2	2.3%	0%	-8%
COc1ccc(CNC(=O)CCc2c(C)nc3cc(-c4ccccc4OC)nn3c2C)cc1	0	4.9%	4%	18%
Cc1nc(C(=O)N2CCc3c([nH]c4ccccc34)C2c2cc(F)ccc2F)cs1 (stereo not drawn)	-6	0.1%	1%	-14%
O=C(c1cc2sccc2n1Cc1ccccc1)N1CCN(c2nc3ccccc3s2)CC1	4	-1.9%	-2%	6%
Cc1cccc(C)c1NC(=O)COC(=O)c1ccccc1[N+](=O)[O-]	1	1.1%	13%	-2%
Cc1ccc(CN2CCN(Cc3ccccn3)CC2CCO)cc1 (stereo not drawn)	8	-0.3%	-11%	0%
CCCN1CCC(=O)N([C@H](CSc2ccc(OC)cc2)Cc2ccccc2)CC1	5	-2.2%	-20%	22%
COc1cccc(C(=O)NCCS(=O)(=O)N2CCC(C)CC2)c1	x	-4.7%	-6%	x
COc1ccc(C(=O)N2CCC(C(=O)Nc3ccccc3OC)CC2)cc1	-5	1.3%	-7%	1%
CCCCCC(=O)Nc1nnn(CCC)n1	2	4.3%	9%	-4%
CC(C)Oc1ccc(C(=O)Nc2nc3ccccc3[nH]2)cc1	x	-0.3%	-9%	17%

Exported with two lines to a compound: 3 of the compounds above.
Below each compound – GLA inh pH 4.5, Rango-impB inh, Rango dissoc inh, miR-21 reporter
Cc1cccc(C)c1NC(=O)COC(=O)c1ccccc1[N+](=O)[O-]
  1, 1.1%, 13%, -2%
COC(=O)CCCN1C(=O)NC(c2ccc(-c3ccccc3)cc2)C(C(=O)OCc2ccccc2)=C1C (stereo not drawn)
  x, -5.5%, 6%, x
CCCN1CCC(=O)N([C@H](CSc2ccc(OC)cc2)Cc2ccccc2)CC1
  5, -2.2%, -20%, 22%

Later entries
SMILES	GLA inh pH 4.5	Rango-impB inh	Rango dissoc inh	miR-21 reporter
CCC(NC(=O)c1ccccc1NC(=O)C(C)(C)C)C(=O)N1CCCC1 (stereo not drawn)	x	-2.6%	-22%	0%
COc1ccc(-c2cc(C(=O)Nc3cc(C)n(Cc4ccc(Cl)cc4)n3)no2)cc1OC	-6	-0.4%	-9%	7%
COc1ccc(CCN(C)C(=O)c2cc(S(=O)(=O)N3CCCCC3)ccc2Cl)cc1OC	x	0.3%	-17%	x
CC[C@]12c3[nH]c4cc(-c5ccco5)ccc4c3CCN1C(=O)[C@@H](CC(=O)NC(C)(C)C)C[C@@H]2C(=O)N1CCN(C(=O)c2ccco2)CC1	x	u	-22%	x
CCOC(=O)c1cnc2c(c(C)nn2-c2ccc(C)cc2)c1Cl	x	-1.1%	-7%	0%
CC(C)c1ccc2[nH]c(O)c(N=NC(=O)c3cccc(S(=O)(=O)Nc4ccc(Cl)cc4)c3)c2c1	-3	-3.2%	-6%	3%
C/C=C/c1ccc(OCC(=O)OCc2csc(Nc3ccc(C)cc3)n2)c(OC)c1	-8	0.4%	-11%	-52%
C#CCn1c(=NC(=O)CN2C(=O)CCC2=O)sc2cc(S(N)(=O)=O)ccc21	-17	6.3%	3%	-1%
O=[N+]([O-])c1cnc2nc(-c3ccncc3)nn2c1O	-7	-5.3%	0%	6%
C=CCNC(=O)C1CCCN(S(=O)(=O)c2ccc(-n3cnnn3)cc2)C1 (stereo not drawn)	x	-1.6%	-13%	-1%
COc1ccc(C(=O)C2CCCN(C(=O)c3cnsn3)C2)c(C)c1 (stereo not drawn)	-3	-0.6%	2%	2%
CCOC(=O)C1=C(N)N2C(=O)C(C)SC2=C(C(=O)OC)C1c1cccc(OC)c1 (stereo not drawn)	-3	0.7%	2%	-4%
CCCn1c(=O)c2ccccc2n2c(SCCOc3ccc(C)cc3)nnc12	-8	-4.7%	-2%	-1%
COc1cc(/C=C2/SC(=NCc3ccccc3)N(Cc3ccccc3)C2=O)ccc1O	-9	u	u	-16%
Cc1ccc(OCC(=O)N2CCc3ccccc32)cc1	-8	1.8%	2%	-48%
O=C1c2cccc3cccc(c23)C(=O)N1c1nncs1	5	7.8%	-10%	-10%
CCC(CC)n1[nH]c(=O)c2c(C)cc(C)nc21	-22	8.3%	3%	-8%
CCOc1ccc(-c2c(C(=O)N/N=C(\C)c3cccs3)nnn2-c2nonc2N)cc1	x	-4.0%	20%	-5%
CCc1ccc([C@@H]2CC=C(C(=O)O)[C@H](c3ccccc3)N2S(=O)(=O)c2ccc(C)cc2)cc1	x	-1.7%	8%	x
CCOC(=O)c1[nH]c(C)c(C(=O)NCC2CCCO2)c1C (stereo not drawn)	7	2.4%	0%	-7%
CC(C)N(Cc1ccccc1)C(=O)CCS(=O)(=O)c1ccc2c(c1)oc(=O)n2C	x	4.8%	7%	2%&0%
Cc1ccc(NP(=O)(c2ccc(N(C)C)cc2NC(=O)c2cccs2)N2CCOCC2)cc1Cl (stereo not drawn)	-16	-0.6%	1%	-11%
O=C(COC(=O)c1ccc(F)c(S(=O)(=O)N2CCCCC2)c1)NCc1ccc(F)cc1	-10	-0.3%	10%	0%
COc1ccc(-c2nnn(Cc3ccccc3F)n2)cc1	-10	0.4%	-4%	-31%
